D2 potentiator = positive allosteric modulators of human D2 dopamine receptor | DiscoveRx D2 beta-arrestin cells, luminescence, 90 min; 100% = 57 uM dopamine signal | P14416 | potentiation, % (no concentration beside the values) | 360,000 tested, 0.23% active; active = potentiation of 50% or more; inconclusive = 30% to 50%; inactive = 30% or less;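 note: compound concentration not given in the record; tested on top of an EC20 dose of dopamine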
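PathHunter beta-arrestin assay in DiscoveRx D2 cells. Compounds were added with an EC20 of dopamine (50 nM final) for 90 min at 37 deg C. Luminescence was read 1 h after detection reagent, with 57 uM dopamine as the EC100 control.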
Six1-Eya2 inh = Six1/Eya2 interaction inhibition; AlphaScreen GST-Six1/His-Eya2 binding, biochemical; stronger effect = lower value; control for the full effect not named in the record; 360,000 tested, 0.56% active; Q15475+O00167; activity change, % (no concentration beside the values); in the data active = activity change below about -65%; inconclusive = about -30% to -65%; inactive = above about -30%; note: % is set by controls: 0 for no effect and ±100 for the full control effect; compound concentration not given in the record
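GST-Six1 + His-Eya2 (5X stock: 250/500 nM); Tris pH 8.0, 300 mM NaCl, 0.05% BSA, 0.02% Tween 20; GSH donor/Ni acceptor beads; 1 h 37 °C dark; AlphaScreen readout.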
CtBP-E1A inh = blocks the CtBP interaction with E1A; AlphaScreen GST-E1A/His-CtBP binding, 1536-well; stronger effect = lower value; control for the full effect not named in the record; activity change, % (test concentration not listed); 340,000 tested, 0.49% active; AID 651724; in the data active means activity change below about -65%; inconclusive means about -30% to -65%; inactive means above about -30%; note: % is set by controls: 0 for no effect and ±100 for the full control effect; compound concentration not given in the record
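In 5 uL wells, 23 nL compound meets equimolar GST-E1A and His-CtBP (5X stock 125 nM each) for 2 h, 37 °C. Beads (5X, 50 ug/mL) then 1 h, 37 °C, dark.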
TRPV1 PAM = potentiators of human vanilloid receptor 1 (TRPV1); Q8NER1; TRPV1-expressing cells, Fluo-8 calcium influx, capsaicin EC20 potentiation; host cell line not named in the record; control for the full effect not named in the record; potentiation, % at 8.33 µM; 320,000 tested, 0.02% active; AID 540277; active means potentiation above 80%; inconclusive means 30% to 80%; inactive means below 30%; note: 0% is about no effect
Target sequence (Q8NER1 whole entry, looked up): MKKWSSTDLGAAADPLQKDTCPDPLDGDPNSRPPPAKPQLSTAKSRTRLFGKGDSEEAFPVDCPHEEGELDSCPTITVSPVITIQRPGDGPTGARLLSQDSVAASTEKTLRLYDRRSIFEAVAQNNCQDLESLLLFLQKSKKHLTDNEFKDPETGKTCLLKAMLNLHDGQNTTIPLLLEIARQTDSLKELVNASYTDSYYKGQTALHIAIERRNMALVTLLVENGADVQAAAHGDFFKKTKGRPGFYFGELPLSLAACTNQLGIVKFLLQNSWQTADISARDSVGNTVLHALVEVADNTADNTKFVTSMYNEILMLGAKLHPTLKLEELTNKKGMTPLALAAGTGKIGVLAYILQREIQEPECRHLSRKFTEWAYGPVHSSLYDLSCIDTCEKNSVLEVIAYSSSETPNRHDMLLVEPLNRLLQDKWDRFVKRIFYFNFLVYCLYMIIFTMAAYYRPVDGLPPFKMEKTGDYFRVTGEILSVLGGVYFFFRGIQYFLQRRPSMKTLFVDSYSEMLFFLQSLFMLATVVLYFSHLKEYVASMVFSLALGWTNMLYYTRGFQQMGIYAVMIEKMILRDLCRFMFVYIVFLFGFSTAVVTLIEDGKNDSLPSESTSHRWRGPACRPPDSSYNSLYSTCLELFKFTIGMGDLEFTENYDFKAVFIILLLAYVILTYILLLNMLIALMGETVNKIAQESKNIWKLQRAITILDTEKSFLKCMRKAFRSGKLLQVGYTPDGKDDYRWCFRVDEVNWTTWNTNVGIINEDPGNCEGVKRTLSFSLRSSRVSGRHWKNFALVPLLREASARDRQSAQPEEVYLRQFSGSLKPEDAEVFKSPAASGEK
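Fluo-8 calcium influx in TRPV1-expressing cells, kinetic read (ex 480/em 520 nm). Compound added and read 3 min for agonist activity, followed by capsaicin at EC20 final and 2 min further read for enhancement.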
TRPML1 inh = inhibitors of human TRPML1 channel. TRPML1-inducible cells, Ca2+ dye fluorescence, FDSS; stronger effect = lower value; inhibition of EC80 agonist-evoked calcium signal. activity change, negative = inhibition, % (concentration not given with the values). 390,000 tested, 0.02% active; in the data active means activity change below about -50%; inconclusive means about -30% to -50%; inactive means above about -30%;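 note: stimulus is agonist 54-4 at its EC80 concentration; % is set by controls: 0 for no effect and ±100 for the full control effect; compound concentration not given in the record; the text of the record puts the active cut at -80%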
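TRPML1-DL cells, Tet-induced overnight (~16 h, 37 °C) at 1,500 cells/well, were loaded with Ca8 no-wash dye plus quencher for 45-90 min at room temperature. Compounds were pinned during FDSS kinetic reading; agonist 54-4 at EC80 (4 uM final) then added.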
TRPML1 ag = activates the human TRPML1 channel; Q9GZU1; 410,000 tested, 0.12% active; activation, % (no concentration beside the values); TRPML1-expressing cells, Ca2+ dye fluorescence, FDSS; host cell line not named in the record; reference of the full effect not given here; AID 624414; in the data active = activation above about 50%; inconclusive = about 30% to 50%; inactive = below about 30%; note: 0% is about no effect; the text of the record puts the active cut at 80%
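Kinetic FDSS Ca2+ read in Tet-induced TRPML1-DL cells (ABD Ca8 dye plus quencher, 45-90 min RT loading): baseline, then compound, then 110 s agonist window; EC80 agonist 54-4 at 4uM final added afterwards for a 110 s antagonist window.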
Starred values were filed as active, the others as inactive; ? = inconclusive; nt = not tested or not shown.

SMILES	D2 potentiator	Six1-Eya2 inh	CtBP-E1A inh	TRPV1 PAM	TRPML1 inh	TRPML1 ag
CCCCn1c(N)c(N(CCOC)C(=O)c2cccc(S(=O)(=O)N3CCCCC3)c2)c(=O)[nH]c1=O	-3	2	2	-1	13	0.3
O=C(Nc1ccc(Cc2ccncc2)cc1)c1cccs1	-6	-2	-10	-9	0	0.4
COCCNC(=O)CN1N=C(c2ccc(OC)cc2)CCC1=O	-2	6	22	21	-13	0.4
COc1ccc(C(=O)N/N=C\c2coc3ccccc3c2=O)cc1	-26	-3	nt	3	-2	-0.6
CCCC(=O)c1ccc(N2CCN(C(=O)c3ccc(Br)cc3)CC2)c(F)c1	-2	5	-3	20	-7	1.3
CCOc1ccccc1NC(=O)COc1cccc(-n2cnnn2)c1	-10	-17	-26	-4	-5	-0.6
COCCNC(=S)Nc1ccccc1[N+](=O)[O-]	-1	4	6	5	-6	-0.4
O=C1CCCN1CCCn1cnc2c([nH]c3ccc(F)cc32)c1=O	-9	5	-2	-13	-15	-0.2
C/C(=N\NC(=O)Nc1ccccc1)c1ccccc1	-8	-6	1	3	6	-1.1
O=C(CCS(=O)(=O)c1ccc(Cl)cc1)NCCc1c[nH]c2ccccc12	-7	-7	0	16	-5	0.1
COc1ccc2[nH]c(=O)c(CN(Cc3ccco3)C(c3nnnn3Cc3ccccc3)C(C)C)cc2c1 (stereo unspecified)	9	-15	-3	-9	0	0.5
CCCC(=O)N(CC(=O)Nc1sc(C)c(C)c1C(N)=O)Cc1ccccc1	-9	5	-12	4	-16	0.6
CSc1nnc2c(n1)c(C)nn2-c1ccc(C)cc1	1	-4	-4	-20	-22	-0.4
COc1ccc(S(=O)(=O)N2CCC(C(=O)NCC3CCCO3)CC2)cc1C (stereo unspecified)	7	5	2	-6	-7	0.1
Cc1cc(N2CCC(C)CC2)nc(-n2nc(C)cc2C)n1	-6	2	-7	-4	5	1.6
Cc1ccc2nc(-c3ccccc3)nn2c1	-4	2	-1	nt	-11	-0.7
CCOC(=O)N1CCC(=NNS(=O)(=O)c2cccc([N+](=O)[O-])c2)CC1	-8	-1	-1	-29	6	-0.5
COC(=O)c1ccccc1NC(NC(=O)c1ccco1)C(=O)c1ccccc1 (stereo unspecified)	2	2	8	17	-18	3.1
CCOC(=O)N1CCC(NC(=O)c2cnn3ccccc23)CC1	2	1	2	-6	19	-0.4
O=C(O)c1ccc(N=NN2CCCCC2)cc1	-3	3	8	17	10	0.2
CCN(CC)CCNC(=O)C(C)c1nn(CC)c(=O)c2ccccc12 (stereo unspecified)	-10	5	-3	-1	0	1.0
C=CCNC(=O)CN(c1ccccc1OCC)S(=O)(=O)c1ccc(C)cc1	-7	7	-3	-7	-4	1.0
CCOC(=O)C=Nc1c(N)n(C)c(=O)n(C)c1=O	10	2	-5	-15	-8	0.5
CC(C)(C)OC(=O)N(CCc1ccccc1)Cc1ccc(OCc2cccc(NC(=O)c3ccccc3)c2)cc1	-4	2	3	nt	-1	2.5
COc1ccc(CN2CCN(c3ccccn3)CC2)c(OC)c1	3	-4	-1	-10	3	0.1
O=C(Nc1nc(-c2ccco2)c(-c2ccco2)s1)C1CC(=O)N(c2ccc3c(c2)OCCO3)C1 (stereo unspecified)	-17	?	-7	27	22	-0.8
Cc1ccc(C(=O)NC(C)C(c2cccs2)N2CCCC2)s1 (stereo unspecified)	-19	-2	19	-30	8	0.4
Cc1ccc(C)c(NC(=O)c2cc(S(=O)(=O)N3CCCCC3)c[nH]2)c1	3	0	3	26	-5	-1.4
Cc1nnc(N(Cc2ccco2)C(=O)c2ccno2)s1	-10	7	4	2	35	-0.5
COc1cccc2cc(C(=O)C3=C(O)C(=O)N(Cc4ccco4)C3c3cccnc3)oc12 (stereo unspecified)	16	0	2	0	23	0.4
O=[N+]([O-])c1ccccc1NCc1ccccc1Cl	0	-27	-9	19	7	4.8
COc1ccc(OCCCC(=O)Nc2nc(-c3ccccn3)cs2)cc1	6	-24	-26	-3	22	0.6
Cc1ccc2sc(NC(=O)CSc3nc(C)cc(C)c3C#N)nc2c1	0	-3	0	-6	-13	-0.4
OC[C@@H]1CN(Cc2ccc(F)cc2)C[C@H](n2cnc3c(NC4CCCC4)ncnc32)O1	1	0	2	nt	nt	-0.8
Cc1cc(OCC(=O)NC2CC2)c2c(C)c(C)c(=O)oc2c1	-2	-1	nt	4	9	1.3
C=CCNCc1cccn1-c1ccccc1	-9	-6	-4	3	-4	0.5
Cc1nn(C)c(C)c1/C=C(\C#N)S(=O)(=O)c1ccc(F)cc1	-5	15	1	nt	0	0.1
CCOc1ncccc1C(=O)OCC(=O)Nc1cc(C)ccc1C	-9	-6	-5	-9	-10	0.2
CN(C)c1ccc(/C=C2\c3ccccc3C(=O)N2c2ccccc2)cn1	6	2	3	nt	-6	3.1
Oc1ccc(/C=N/Nc2cc(N3CCCC3)nc(N3CCCC3)n2)cc1	-39	-8	-4	11	1	0.6

An excerpt of these results, with bars between the fields.
compound | D2 potentiator | Six1-Eya2 inh | CtBP-E1A inh | TRPV1 PAM | TRPML1 inh | TRPML1 ag
Cc1ccc(C)c(NC(=O)c2cc(S(=O)(=O)N3CCCCC3)c[nH]2)c1 | 3 | 0 | 3 | 26 | -5 | -1.4
Cc1nnc(N(Cc2ccco2)C(=O)c2ccno2)s1 | -10 | 7 | 4 | 2 | 35 | -0.5
COc1cccc2cc(C(=O)C3=C(O)C(=O)N(Cc4ccco4)C3c3cccnc3)oc12 (stereo unspecified) | 16 | 0 | 2 | 0 | 23 | 0.4
O=[N+]([O-])c1ccccc1NCc1ccccc1Cl | 0 | -27 | -9 | 19 | 7 | 4.8

Other structures follow.
SMILES	D2 potentiator	Six1-Eya2 inh	CtBP-E1A inh	TRPV1 PAM	TRPML1 inh	TRPML1 ag
CCN(C(=O)c1cc2c(=O)[nH]c3ccc(C)cc3c2s1)c1cccc(C)c1	-4	-1	2	6	36	0.3
N=C(N)N1CCc2ccccc21	-7	-2	-3	2	-11	0.5
COc1ccc(C(=O)COC(=O)c2ccccc2NS(=O)(=O)c2ccc(O)c([N+](=O)[O-])c2)cc1	-3	-4	-9	-1	0	0.9
CC(=O)OC(C(=O)NC1CCCCC1)c1ccncc1 (stereo unspecified)	-18	3	7	-9	6	0.9
CCOC(=O)C1(CCOC)CCN(Cc2cnc(-c3cccc(C)c3)nc2)CC1	-16	-5	6	4	3	0.8
O=C(N1CCOCC1)C1(c2ccccc2)CCCCC1	-10	2	0	-12	9	-0.3
CCn1c(/C=C2\C(=O)N(C)c3ccccc32)nc2ccccc2c1=O	-23	-1	3	0	19	3.4
Cc1cc(NC(=O)C2CCN(S(=O)(=O)Cc3ccccc3)CC2)ccc1-n1cnnn1	6	-17	-3	-13	27	2.3
O=C(CSc1ncnc2nc[nH]c12)NCCc1ccccc1	-15	2	3	3	28	0.7
CCN(c1ccccc1)S(=O)(=O)c1cc(C(=O)NCC(c2ccco2)N2CCCCC2)ccc1C (stereo unspecified)	-39	0	-16	nt	43	2.4
Cn1c(=O)oc2cc(S(=O)(=O)N3CCC(C(=O)N4CCN(c5ccc(F)cc5)CC4)CC3)ccc21	-6	6	nt	-8	12	0.8
CC#CC(=O)N1CCC(n2nccc2NC(=O)c2ccc3c(c2)OCO3)CC1	-12	-9	-8	-1	22	0.0
Cc1sc(NC(=O)CN2CCOCC2)c(C(=O)c2ccccc2)c1C	-11	-19	-12	-12	5	0.4
CC(=O)N1CCc2cc(S(=O)(=O)NC(C(=O)NCc3ccccc3)C(C)C)ccc21 (stereo unspecified)	1	3	1	6	-28	-0.6
c1ccc(-c2noc(-c3ccc4ccccc4c3)n2)cc1	-16	8	3	3	3	-0.4
COC(=O)c1c(C)nn(-c2ccc(F)c(Cl)c2)c1-c1cc(C)on1	-3	6	-11	-9	-2	1.6
COc1ccccc1Nc1nc(-c2ccc3c(c2)NC(=O)CO3)cs1	-5	-22	-6	11	-8	1.9
COc1ccccc1/C=C1\SC(=O)N(CCC(=O)NCCCn2ccnc2)C1=O	-4	6	nt	?	-3	-0.3
Cc1ccc(Cl)cc1N1CCN(C(=O)C2CCCN(S(=O)(=O)c3cnc[nH]3)C2)CC1 (stereo unspecified)	-5	-7	1	-10	6	0.4
COc1ccccc1N(CC(=O)NCc1ccc(F)cc1)C(=O)CCC(=O)Nc1nccs1	1	0	-14	-1	18	1.0

2 compounds picked at random from the list so far:
SMILES	D2 potentiator	Six1-Eya2 inh	CtBP-E1A inh	TRPV1 PAM	TRPML1 inh	TRPML1 ag
CCN(C(=O)c1cc2c(=O)[nH]c3ccc(C)cc3c2s1)c1cccc(C)c1	-4	-1	2	6	36	0.3
CC#CC(=O)N1CCC(n2nccc2NC(=O)c2ccc3c(c2)OCO3)CC1	-12	-9	-8	-1	22	0.0

Following part:
SMILES	D2 potentiator	Six1-Eya2 inh	CtBP-E1A inh	TRPV1 PAM	TRPML1 inh	TRPML1 ag
CCc1nn2c(=O)cc(COC(=O)c3ccc(SC)cc3OC)nc2s1	-6	-1	3	-8	5	3.4
CN(Cc1ccccc1)C(=O)COC(=O)CCC(=O)c1ccc(Cl)cc1	1	14	-3	nt	28	0.6
COc1cccc(/C=N/NC(=O)CNC(=O)c2cccs2)c1O	-4	-85*	-89*	7	-12	-0.1
CNC(=O)c1ccc(Nc2nnc(-c3ccc(C)c(S(=O)(=O)NCC4CCCO4)c3)c3ccccc23)cc1 (stereo unspecified)	-31	?	-29	-4	-8	-0.8
COc1ccc(S(=O)(=O)n2cnc3ccccc32)c(C)c1	-16	6	nt	8	17	1.2
COC(=O)c1ccccc1NC(=O)CSc1nc2ccccc2c(=O)[nH]1	-7	2	-1	0	-1	1.3
Cc1nn(Cc2ccccc2)c(C)c1NC(=O)c1ccc([N+](=O)[O-])cc1[N+](=O)[O-]	88*	1	12	-19	3	0.5
O=C(NNC1CC(=O)N(c2cccc(Cl)c2)C1=O)c1cccs1 (stereo unspecified)	-10	-15	1	-2	2	-0.5
Cc1cc(C(=O)N2CCN(S(=O)(=O)c3ccccc3C#N)CC2)c(C)o1	-4	-1	1	21	9	3.4
CCC(=O)OC1(C)C(=O)C=C2C=C(c3ccc(C#N)cc3)OC=C2C1=O (stereo unspecified)	3	-18	-4	nt	7	-0.2
CC(=O)Nc1ccc(S(=O)(=O)N2CCCC(C(=O)O)C2)cc1 (stereo unspecified)	-10	0	-12	-6	-18	-0.2
CCOC(=O)Oc1ccc2c(c1)C(C)=CC(C)(C)N2C(=O)OCC	-7	9	11	-9	6	-0.9
COc1ccc(S(=O)(=O)N2CCC(C(=O)NCc3ccccc3)CC2)cc1OC	1	7	7	4	-13	0.4
O=C(O)c1ccc(N/N=C/c2ccc(-c3cc(Cl)ccc3Cl)o2)cc1	0	-1	-6	-13	48	0.1
CN(C)C(CNC(=O)NC1CCCCC1)c1cccnc1 (stereo unspecified)	-4	1	7	4	5	3.5
COc1ccc2nc(SCC(=O)Nc3ccccc3C)[nH]c2c1	-4	-2	0	-1	-27	3.9
Cc1nnc(SCC(=O)Nc2cccc(Br)c2)s1	-5	-1	nt	7	2	-0.2
O=C(CN(Cc1ccco1)C(=O)c1ccc(N2CCCC2=O)cc1)Nc1ccccc1C(F)(F)F	-7	-1	9	-16	0	-0.3
CC(=O)Nc1ccc(NC(=O)COC(=O)COc2ccc3ccccc3c2)cc1	-5	3	4	nt	0	0.0
